Sa ugtP lethal: growth inhibition of S. aureus ugtP deletion strain; S. aureus RN4220 ugtP deletion, OD600 growth, 16 h; some inactives read as strong as hits; growth inhibition, % (no concentration beside the values); 0.54% of 330,000 active;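 active means z-score under -3 and OD600 up to 0.15 on both plates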;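 further: plate controls were untreated wells for no effect and antibiotic for full effect; wells of about 80 µL received 100 nL stock; the first replicate is given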
PrP UTR inh: inhibition of PrP 5' UTR reporter expression | AID 488862 | inhibition, % (concentration not given with the values) | 0.35% of 340,000 active | cell-based PrP 5' UTR mRNA reporter, plate reader;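 active means every replicate at 50% or more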;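 further: 0 = median of the neutral control wells; tested in H4 reporter cells; numbers are from one replicate; inactives centre near -14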
Mtb hypoxia rep: inhibitors of hypoxia-regulated fluorescent reporter in Mycobacterium tuberculosis; 0.1% of 300,000 active; M. tuberculosis hypoxia-regulated fluorescent reporter, fluorescence; fluorescence inhibition, % (no concentration beside the values); AID 1159583;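 active means 35 to 45% if threefold the growth effect, above 45% if 1.5-fold the growth effect; inactive means the rest, general growth blockers included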;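 further: wells of about 50 µL received 100 nL stock; 0% = vehicle wells and 100% = reference inhibitor wells; whole bacteria with a GFP reporter of the hypoxia response; strong numbers were not always called active; many hits fall short of the cut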
BJeLR viability: kills HRASV12-expressing BJeLR cells. BJeLR (HRASV12) viability, CellTiter-Glo ATP luminescence, 48 h; reference of the scale not given here. inhibition, % (test concentration not listed). 0.17% of 300,000 active;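 active means replicate mean above 50%; inconclusive means above 50% but judged a plate artefact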;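 further: 50 nL library stock added to about 25 µL; numbers are from one replicate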
RN4220 kill: S. aureus RN4220 growth inhibition; AID 1259311; OD600, 16 h; inhibition, % (concentration not given with the values); 0.33% of 330,000 active;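 active means z-score of -3 or lower and OD600 up to 0.18 on both plates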;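 further: plate controls were untreated cells for no effect and reference antibiotic for full effect; stock transfer was 100 nL into about 80 µL; one replicate is shown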
Autofluor counter: compound fluorescence in toxin protease inhibitor counterscreen; compound autofluorescence counterscreen, microsphere flow cytometry; stronger effect = higher value; fluorescence intensity (no concentration beside the values); 3.1% of 360,000 active; AID 624483;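 active means at least 3 SD above the mean of all compounds, about 16000 in these data; inconclusive means too few beads counted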;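 further: 100 nL of 1 mM stock went into each well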
Mtb hypoxia rep growth: further read-out of Mtb hypoxia rep, marked with its call; growth inhibition, %; measured here: M. tuberculosis growth (absorbance);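 0% = vehicle and 100% = reference antibiotic; read after six days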
An asterisk follows results filed as active; ? = inconclusive; . = not tested or not shown. Rows were taken by chance, and some 3.9% of all compounds hit somewhere here.

SMILES	Sa ugtP lethal	PrP UTR inh	Mtb hypoxia rep	Mtb hypoxia rep growth	BJeLR viability	RN4220 kill	Autofluor counter
Cc1ccc(S(=O)(=O)NC(=O)c2cc(C)n(C3CC3)c2C)cc1	3	-36	13	3	-5	3.5	3844
COc1ccc(OC)c(/C=C/C(=O)OCC(=O)c2c(N)n(C)c(=O)n(C)c2=O)c1	-4	-21	5	5	-3	4.0	4123
O=C1OC(OC2CCCCC2)(c2ccccc2)c2ccccc21 (centres undefined)	34	.	12	6	17	2.4	11327
CCCCCC(=O)N1CC2(CC(c3cccc(NC(=O)CC)c3)=NO2)C[C@H]1C(N)=O (some centres undefined)	.	-8	.	.	-2	.	4006
CC(OC(=O)C1=COCCO1)C(=O)Nc1cccc(S(=O)(=O)N2CCOCC2)c1 (centres undefined)	3	-11	14	2	-1	3.5	3502
Cn1cc(C=NNC(=O)c2cc3cc(Br)ccc3o2)c2ccccc21	2	.	-7	5	.	3.3	.
COCCNC(=O)C(=O)NCC1OCCN1S(=O)(=O)c1ccc(F)cc1 (centres undefined)	-2	-3	-11	-5	-3	-1.1	6082
Cc1cc(-c2ccccc2)c2c(n1)sc1c(O)cc(=O)[nH]c12	12	.	-3	2	-17	3.0	.
Cc1ccc(NC(=O)C23CCC(C)(C(=O)[C@H]2Br)C3(C)C)cc1 (some centres undefined)	6	-4	3	4	0	1.7	.
CCN1CCN(C(=O)c2ccc(Cl)c(S(=O)(=O)N3CCOCC3)c2)CC1	3	-8	10	5	1	3.0	5263
O=C(COC(=O)c1ccc(Cl)c(S(=O)(=O)N2CCCC2)c1)NC1CCCCC1	2	-27	-3	-1	0	3.8	4724
Cc1cc(C)n2nc(SCC(=O)N3CCc4ccccc43)nc2n1	1	-14	2	-10	18	0.8	2666
Cc1ccc(O)c(NC(=S)NC(=O)/C=C/c2ccccc2)c1	6	-4	8	12	-4	6.0	3053
CCC(C)C(NC(N)=O)C(=O)NC1CCC(C)CC1 (centres undefined)	0	.	5	8	-7	4.5	.
O=C(O)Cc1ccc(NC(=O)c2ccc3c(c2)C(=O)N(CC2CCCO2)C3=O)cc1 (centres undefined)	3	-27	12	9	1	1.8	5266
COCCN(C(=O)COC(=O)/C=C/c1ccco1)c1c(N)n(Cc2ccccc2)c(=O)[nH]c1=O	-1	1	4	8	6	2.9	5346
CN(C)/N=C/c1ccc(N2CCOCC2)cc1	.	-40	.	.	4	.	4593
Cc1ccc(-c2ccc(CCC(=O)O)n2NC(=O)c2cccs2)cc1	-2	-18	2	3	5	-0.4	2232
Cc1cccc(Nc2ccccc2C(=O)OCC(=O)NCc2ccco2)c1C	-1	-40	2	9	-7	-6.7	9099
CCCCCCNC(=O)CCNC(=O)c1cc(OC)c(OC)c(OC)c1	0	0	-2	11	-10	2.1	22280*
Cc1nn(CC(=O)NN=Cc2cccs2)c(C)c1[N+](=O)[O-]	3	.	-4	3	.	3.9	.
CC(C)N(Cc1cn(C)nc1-c1cccc(Cl)c1)CC1CCC(=O)N1 (centres undefined)	2	-23	13	10	-1	4.5	3225
Cn1nnnc1SCC(=O)c1cccs1	2	-21	7	3	-3	4.6	12381
Cc1ccc(S(=O)(=O)NCC(=O)OCc2ccccc2)cc1	7	-21	-5	-2	5	10	3821
Cc1c(C(=O)Nc2ccc3c(c2)OCCO3)cnn1C	-2	18	4	8	-10	-1.2	3727
The listing continues:
SMILES	Sa ugtP lethal	PrP UTR inh	Mtb hypoxia rep	Mtb hypoxia rep growth	BJeLR viability	RN4220 kill	Autofluor counter
Cc1ccc(NC(=S)NNC(=O)c2ccccc2O)c(C)c1	-7	-19	9	2	6	-0.5	3721
COc1ccc(-n2c(C)cc(C3=NNC(=NC4CC4)SC3)c2C)cc1	17	-21	2	9	.	2.8	3446
COC(=O)C1C2c3ccccc3OC1(C)N=c1sc(=Cc3cn(C)nc3C)c(=O)n12 (centres undefined)	-2	.	4	8	.	1.8	.
O=c1c2ccccc2c(-c2ccccc2)nn1-c1cc(Cl)ccc1[N+](=O)[O-]	13	-9	.	.	-9	1.6	5325
COc1ccc(Cl)cc1NC(=O)CN(C)Cc1cccs1	10	-42	2	5	-5	3.7	5702
O=c1[nH]cccc1-c1nc2ccccc2n1Cc1cccc(Cl)c1	-6	-19	-2	-6	1	-2.2	4055
CN1CCCN(CC(O)COCc2cccs2)CC1 (centres undefined)	-6	-17	10	-17	1	-15	3399
CCN1CCN(C(=O)CCc2ccc(S(=O)(=O)NCCc3ccccc3)cc2)CC1	-1	-15	.	.	6	2.2	4884
O=C(CSc1nnc2c(n1)[nH]c1ccccc12)NC1CCCCC1	5	-14	-4	-6	9	-0.1	4038
CCOC(=O)c1cc2c(C)n(-c3ccc(N(C)C)cc3)c(C)c2cc(C(=O)OCC)c1=O	3	-21	-3	-3	10	6.0	18745*
CCOC(CNC(=O)C(=O)Nc1cc2c3c(c1)CCN3C(=O)CC2)OCC	-2	7	-6	1	5	-2.9	6139
COc1ccc(CCNC(=O)CSc2nc3ccccc3o2)cc1	-1	-12	23	14	-1	8.1	3511
COc1cccc(CNC(=O)COC(=O)c2nc(Cl)c(Cl)c(Cl)c2Cl)c1	16	-33	6	-3	.	3.1	.
CCc1nc(SCc2ccc(OC)c(Br)c2)n[nH]1	6	-11	13	-2	-7	1.7	2971
N#C/C(=C(/O)CN1CCOCC1)c1nc(-c2ccccc2)cs1	.	-8	.	.	-3	.	12794
Cc1cccn2c(=O)c3cc(C(=O)NC4CCCC4)c(=N)n(C4CCCC4)c3nc12	5	-4	.	.	7	0.8	3549
COc1cc(CNCc2cccs2)ccc1OCC(=O)NC(C)(C)C	-1	-13	-2	2	11	-3.0	8833
COc1nc(NCCc2ccc(OC)c(OC)c2)nc(OC)n1	-11	6	.	.	6	-0.4	3369
COC(=O)c1sc(NC(=O)/C=C/c2ccccc2Cl)nc1C	6	-31	6	8	-3	4.5	4023
O=C(Cc1ccccc1)NN=Cc1cccc([N+](=O)[O-])c1	4	.	3	4	.	2.6	.
Cc1ccc(-c2csc(NC(=O)CSc3nc4ccccc4o3)n2)cc1	8	-16	20	5	-1	-1.9	2355
CN(C)C(=O)CSc1nc2ccccc2n1CC(=O)N1CCN(c2ccccc2)CC1	-1	-1	-7	5	-7	4.0	10052
COc1ccc(CN(CC(=O)NC2CCCC2)C(=O)CCC(=O)Nc2nc(C)cs2)cc1	-1	1	2	-2	-7	0.8	4629
C=CCS(=O)(=O)N1CCCC(N2CCN(c3ccccc3OC)CC2)C1 (centres undefined)	8	-12	1	17	-1	-1.8	3898
CCn1cc(C(=O)OCC(=O)c2ccccc2)c(=O)c2ccc(C)nc21	13	-2	-8	1	4	7.5	3176

Compound profiles, from the list above. Order of values: Sa ugtP lethal | PrP UTR inh | Mtb hypoxia rep | Mtb hypoxia rep growth | BJeLR viability | RN4220 kill | Autofluor counter
CCN1CCN(C(=O)CCc2ccc(S(=O)(=O)NCCc3ccccc3)cc2)CC1 reads -1 | -15 | . | . | 6 | 2.2 | 4884
N#C/C(=C(/O)CN1CCOCC1)c1nc(-c2ccccc2)cs1 reads . | -8 | . | . | -3 | . | 12794
COC(=O)C1C2c3ccccc3OC1(C)N=c1sc(=Cc3cn(C)nc3C)c(=O)n12 (centres undefined) reads -2 | . | 4 | 8 | . | 1.8 | .
O=c1c2ccccc2c(-c2ccccc2)nn1-c1cc(Cl)ccc1[N+](=O)[O-] reads 13 | -9 | . | . | -9 | 1.6 | 5325
COc1ccc(CCNC(=O)CSc2nc3ccccc3o2)cc1 reads -1 | -12 | 23 | 14 | -1 | 8.1 | 3511

Further results
SMILES	Sa ugtP lethal	PrP UTR inh	Mtb hypoxia rep	Mtb hypoxia rep growth	BJeLR viability	RN4220 kill	Autofluor counter
O=C(O/N=C(\c1ccccc1)c1ccncc1)c1ccccc1F	.	-17	.	.	-4	.	4685
O=C(CSc1nnc(NC(=O)c2ccc(F)cc2)s1)NC1CCCC1	7	-26	3	-11	3	-4.2	5770
COCCCNC(=S)Nc1ccccc1C	5	-15	16	4	8	-0.9	2520
COc1ccc(NC(=O)C2CC(=O)OC23CCCCC3)cc1 (centres undefined)	-2	-21	8	1	7	0.2	10359
COC(=O)c1sccc1NC(=S)Nc1cc(C)cc(C)c1	0	-41	3	-7	-1	2.0	7629
Cc1ccc(OCC(=O)Nc2cc(C)on2)c([N+](=O)[O-])n1	7	-44	16	2	9	9.2	4250
COc1ccc(-c2c(C#N)c(N)nc3c2c(=O)n(C)c(=O)n3C)cc1Cl	6	1	.	.	4	-3.9	3344
CC(=O)Nc1cc(C(=O)NCc2ccco2)ccc1Sc1ccc(C)cc1	11	-16	7	-1	1	2.4	2264
O=c1[nH]c(-c2ccccc2)nn1-c1ccc(Br)cc1Br	1	-7	-1	10	-5	5.6	3135
COc1ccc(OC(C)C(=O)Nc2cccc(F)c2)cc1 (centres undefined)	-8	-13	-4	12	5	0.0	4044
CC1CCN(C(=O)Cn2nnc(-c3ccccc3)n2)CC1	2	-36	-9	-3	4	4.7	3754
O=C(CN1C(=O)c2ccccc2S1(=O)=O)N1CCN(c2ccc(F)cc2)CC1	10	-4	.	.	30	2.6	3096
COCCN(C(=S)Nc1c(C)cc(C)cc1C)C(C)c1cccs1 (centres undefined)	12	-26	4	5	-1	11	4572
CCOC(=O)COc1ccc2nsnc2c1	-4	-24	.	.	2	0.8	4969
COc1cc(OC)cc(C(=O)OCCNC(=O)Cn2cnc3c2c(=O)n(C)c(=O)n3C)c1	5	.	16	7	-11	3.6	.
COc1cc([N+](=O)[O-])ccc1NC(=O)C[n+]1ccccc1C	-1	-19	8	2	-5	-0.1	8825
CCOc1cc(/C=C2\CN(C)C/C(=C\c3ccc(O)c(OCC)c3)C2=O)ccc1O	-7	-3	4	4	61*	-0.2	3340
COc1ccccc1C(=O)NNC(=O)c1ccccc1[N+](=O)[O-]	1	-7	6	12	1	4.5	2416
COc1cc(-c2nnc(SCC(=O)c3cc(C)n(CC4CCCO4)c3C)o2)cc(OC)c1OC (centres undefined)	-11	-6	7	-5	4	5.5	6250
Nc1c(-c2ccc(Cl)cc2)cnn1-c1cc(C(F)(F)F)cc(C(F)(F)F)c1	-1	-17	11	1	-4	6.0	6250
Cc1nn(C(=O)C2CC2)c(C)c1Sc1ccc(Cl)cc1	5	-16	15	13	1	1.8	2874
NCCCC[C@H]1CNC(=O)C(=O)N1CCc1cccc(F)c1	.	-23	.	.	6	.	4204
COc1cc(-c2nnc(SCC(=O)Nc3ccc(C(=O)O)cc3)o2)cc(OC)c1OC	4	-11	14	5	.	5.3	3932
CN(CC(=O)Nc1ccccc1Cl)C(=O)CN1C(=O)NC(c2ccccc2)(c2ccccc2)C1=O	2	-15	7	11	.	-4.6	4616
Cc1ccc(C2=NCCn3c2c2ccccc2[n+]3[O-])cc1	-2	1	.	.	5	16	4111
Cn1cc(CNC(=O)c2cc(COc3ccc4c(c3)CCCC4)on2)cn1	-3	-25	-4	7	10	-3.5	5452
Cc1ccc(S(=O)(=O)NCCOc2nc(N(C)C)nc(N(C)C)n2)cc1	0	-16	11	5	2	6.5	?

For reference, four of the compounds above:
SMILES	Sa ugtP lethal	PrP UTR inh	Mtb hypoxia rep	Mtb hypoxia rep growth	BJeLR viability	RN4220 kill	Autofluor counter
O=C(O/N=C(\c1ccccc1)c1ccncc1)c1ccccc1F	.	-17	.	.	-4	.	4685
O=C(CSc1nnc(NC(=O)c2ccc(F)cc2)s1)NC1CCCC1	7	-26	3	-11	3	-4.2	5770
COCCCNC(=S)Nc1ccccc1C	5	-15	16	4	8	-0.9	2520
COc1ccc(NC(=O)C2CC(=O)OC23CCCCC3)cc1 (centres undefined)	-2	-21	8	1	7	0.2	10359
